# PK Bst: alters activity of Bacillus stearothermophilus pyruvate kinase; Potency, µM; 1.2% of 51,000 active; partly purified Bacillus stearothermophilus pyruvate kinase, luminescence ATP production; ribose 5-phosphate activator present at AC10; in the data active means potency below about 11 µM; inconclusive means mostly about 12 µM to 25 µM; inactive means weaker than that;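 the screen sought inhibitors and activators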;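 further: potency means the concentration at half of the fitted maximal effect; scaled between full activation by ribose 5 phosphate and full inhibition by luteolin; about four in five hits inhibit and the cells do not say which; series up to 57 µM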
# YjeE inh: displaces an ADP probe from E. coli YjeE (TsaE); AID 605; 0.05% of 71,000 active; P0AF67; purified YjeE, fluorescence polarisation of a bound ADP probe; Potency, µM; active = well fitted falling curve; inconclusive = weaker or top-dose-only fall, or a rising curve; inactive = flat or poorly fitted curve;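 further: top concentration of the series not given in the record; excess ADP was the control for the full effect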
#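 Purified YjeE (10 uM) with BODIPY Texas Red-labeled ADP probe (2 uM); compounds pin-transferred, 15 min at room temperature. Binding inhibition read as decreased fluorescence polarization; ADP titration as control.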
# * marks the source's active call; other numbers are inactive results; i = inactive; ? = inconclusive; / = not tested or not shown; & = joins results of further samples. Only part of the results is shown, so the mix of outcomes need not match the whole.
Compound	PK Bst	YjeE inh
O=C(c1cc(S(=O)(=O)N2CCOCC2)ccc1F)N1CCC2(CC1)OCCO2	>57	i
Cc1oc(-c2ccccc2F)nc1CS(=O)CC(=O)N1CCC2(CC1)OCCO2 (configuration not stated)	>57	i
NC(N)=NOCC[C@H](N)C(=O)O	/	i
CCCCCCCCCCCOC(=O)c1ccccc1C(=O)OCCCCCCCCCCC	/	i
CCN(CC)c1ncnc2c1ncn2[C@@H]1O[C@@H](COP(=O)(O)OP(=O)(O)C(Br)(Br)P(=O)(O)O)[C@H](O)[C@@H]1O	/	i
Cc1ccc2c(c1)N(CCC(=O)N1CCC3(CC1)OCCO3)C(=O)CO2	>57	i
CCC(=O)c1cn(Cc2ccccc2C#N)c2ccccc12	>57	i
Nc1cc(Cl)ccc1O	/	i
CCC(=Nc1ccc2c(c1)CCC2)c1c(O)n(C2CCCCC2)c(=O)[nH]c1=O	>57	i
CCOc1ccccc1C1SCC(=O)Nc2c1c(=O)[nH]n2C(CC)CC (configuration not stated)	>57	i
CSC(=Nc1ccccc1)c1c(O)n(C)c(=O)n(C)c1=O	>57	i
C=C[C@]12CN(C)[C@H]3C1[C@@]1(C(=O)Nc4ccccc41)[C@H]1C[C@H]2[C@H]3CO1	/	i
O=c1[nH]cnc2[nH]cc(CN3CCCCC3)c12	/	i
ClC(Cl)(Cl)C(Cl)(Cl)Cl	/	i
Oc1ccc2c3c1O[C@@H]1c4[nH]c5c(c4C[C@@]4(O)[C@@H](C2)N(CC2CC2)CC[C@]314)C[C@]1(O)[C@@H]2Cc3ccc(O)c4c3[C@@]1(CCN2CC1CC1)[C@H]5O4	/	i
CCN(CC)N=O	/	i
Cc1cccc(-n2c(-c3ccco3)nc3ccccc3c2=O)n1	/	i
O[C@@H](Cc1ccncc1)C(Cl)(Cl)Cl	/	i
CCCCOCCCn1c(N)c(C(=O)OC(C)COC)c2nc3ccccc3nc21 (configuration not stated)	>11	/
CCOC(=O)N(c1ccccc1)P1(=S)OCC(C)O1 (configuration not stated)	>57	i
Cn1c(O)c(C=NCCOc2ccc(Cl)cc2)c(=O)n(C)c1=O	/	i
S=C(c1ccc(Cl)cc1)N1CCOCC1	/	i
Nc1c(Cl)cc([N+](=O)[O-])cc1Cl	/	i
CCOC(=O)c1[nH]c(C)c(C(=O)N2CCC3(CC2)OCCO3)c1C	>57	i
Cc1ccc(NC(=[OH+])c2cc3ccccc3cc2O)c(C)c1.Cc1ccc(NC(=[OH+])c2cc3ccccc3cc2O)c(C)c1.[Ni]	/	i

# The closing two compounds of the part before open the next one.
Compound	PK Bst	YjeE inh
CCOC(=O)c1[nH]c(C)c(C(=O)N2CCC3(CC2)OCCO3)c1C	>57	i
Cc1ccc(NC(=[OH+])c2cc3ccccc3cc2O)c(C)c1.Cc1ccc(NC(=[OH+])c2cc3ccccc3cc2O)c(C)c1.[Ni]	/	i
CN(C)CP(=O)(O)CN(C)C=O	>57	i
CCOC(OCC)P(=O)(O)CCCN	/	i
C=C(Cl)Cl	/	i
Clc1ccc(C(c2ccccc2Cl)C(Cl)(Cl)Cl)cc1 (configuration not stated)	/	i
CCCC(C)C(=O)NC1CCSC1=O (configuration not stated)	/	i
O=[N+]([O-])c1ccc(Cl)c(Cl)c1	/	i
CC(=NCCCO)c1c(O)n(Cc2ccccc2)c(=O)[nH]c1=O	>57	i
O[C@@H]1[C@H](O)[C@H]2[C@@H](O)CCN2C[C@@H]1O	/	i
COc1cc([C@@H](O)CN)ccc1O	/	i
CCCN1C[C@H](C)N([C@H](c2ccc(C(=O)N(CC)CC)cc2)c2cccc(OC)c2)C[C@H]1C	/	i
COc1ccccc1-n1c(-c2ccoc2)nc2ccccc2c1=O	>57	i
CCOCCCNC(=O)CN1C2CCC1CC(O)(c1ccc(OC)cc1)C2 (configuration not stated)	>57	i
NCCc1c[nH]c2ccc(C(N)=O)cc12	/	i
c1ccc2c(c1)Sc1ccccc1N2C[C@H]1CN2CCC1CC2	/	i
CC1=C[C@@H]2c3cccc4[nH]cc(c34)C[C@H]2N(C)C1	/	i
CC(C#N)CCC#N (configuration not stated)	/	i
CC(C)(C)C(O)C(Oc1ccc(Cl)cc1)n1cncn1 (configuration not stated)	?	i
CCCCc1ccc2[nH]cc(CCN)c2c1	>57	i
Nc1c(C(=O)NCCc2ccccc2)c2nc3ccccc3nc2n1CCN1CCOCC1	>57	i
C[N+]12CCC(CC1)C(C#N)(N1CCOCC1)C2 (configuration not stated)	>57	i
CCCCCCC(C)(C)c1ccc([C@@H]2C[C@H](O)CC[C@H]2CCCO)c(O)c1	/	i
CC(Cl)CCl (configuration not stated)	/	i
COP(=S)(OC)SCn1nnc2ccccc2c1=O	/	?
COc1ccc(-c2nc(CS(=O)CC(=O)N3CCC4(CC3)OCCO4)c(C)o2)cc1 (configuration not stated)	>57	i
C=C(C)[C@H]1[C@H]2OC(=O)[C@@H]1[C@]1(O)C[C@H]3O[C@]34C(=O)O[C@H]2[C@]14C	/	i

# Profiles, looked up by structure.
# Record of `O[C@@H]1[C@H](O)[C@H]2[C@@H](O)CCN2C[C@@H]1O` : PK Bst: /; YjeE inh: i
# Record of `CC(C)(C)C(O)C(Oc1ccc(Cl)cc1)n1cncn1` (configuration not stated) : PK Bst: ?; YjeE inh: i

# (cont.)
Compound	PK Bst	YjeE inh
ClC1=C(Cl)C2(Cl)C3C(Cl)C(Cl)CC3C1(Cl)C2(Cl)Cl (configuration not stated)	/	i
CC(N)C(=O)c1ccco1 (configuration not stated)	>57	i
c1ccc(N=Nc2ccccc2)cc1	/	i
O=C(C[C@H](c1ccccc1)c1c(O)c2ccccc2oc1=O)c1ccccc1	/	i
O=C(Cl)C(Cl)(Cl)Cl	/	i
Cc1c(C(=O)N2CCC3(CC2)OCCO3)oc2ccc(S(=O)(=O)N3CCOCC3)cc12	>57	i
COc1ccc2c(c1OC)C(=O)OC2c1c(O)n(Cc2ccc(F)cc2)c(=O)[nH]c1=O (configuration not stated)	>57	i
CCC(=NCCO)c1c(O)n(-c2ccc(Cl)cc2)c(=O)[nH]c1=O	i	i
C[C@H]1C(=O)O[C@H]2CCN3CC=C(COC(=O)[C@](C)(O)[C@@]1(C)O)[C@H]23	/	i
CCN(CC)CCCN=Cc1c(O)n(-c2ccccc2F)c(=O)[nH]c1=O	>57	i
CC12CN3CC(C)(CN(C1)P3(=O)Oc1ccccc1)C2=O (configuration not stated)	/	i
CCOP(=S)(OCC)Oc1nc(Cl)c(Cl)cc1Cl	/	i
O=C(O)[C@H]1[O][Sb][O][C@@H](C(=O)O)C1O (some centres not stated)	/	i
O=C(c1cccs1)C1CN2CCC1CC2 (configuration not stated)	/	i
CCC1(CC)C(=O)NC(=NCCc2c[nH]c3ccccc23)NC1=O	>57	i
CC[N+]1(C)CCCC(OC(=O)C(O)(c2ccccc2)c2ccccc2)C1 (configuration not stated)	>26	/
CCC(=NCCOc1ccc(Cl)cc1)c1c(O)n(C)c(=O)n(C)c1=O	>26	/
COc1cc2c3cc1Oc1cc(ccc1O)C[C@@H]1c4c(cc(OC)c(O)c4Oc4cccc(c4)C[C@H]3N(C)CC2)CC[N+]1(C)C	/	i
CCN1c2nc3c(C)cccn3c(=O)c2CC2(C(=O)N(C)C(=O)N(C)C2=O)C1C (configuration not stated)	>57	i
CC12CN3CC(C)(CN(C1)C3c1cccs1)C2 (configuration not stated)	>57	i
COc1cc2c(cc1OC)[C@]13CCN4CC5=CCO[C@@H]6CC(=O)N2[C@@H]1[C@H]6[C@@H]5C[C@H]43	/	i
CC(=O)Nc1ccc(OC(=O)c2ccccc2N)cc1	/	i
O=c1c2ccccc2nc(-c2ccco2)n1-c1ccc(Br)cn1	>57	i
CC12CNCC(C)(CNC1)C2O (configuration not stated)	/	i
CCN1C[C@@]2(COC(=O)c3ccccc3N3C(=O)C[C@H](C)C3=O)CC[C@H](OC)[C@@]34[C@@H]5CC6[C@@H](OC)C[C@@](O)([C@H]5[C@H]6OC)C(O)([C@@H]13)[C@@H](OC)[C@H]24	/	i

# 2 neighbouring entries already listed, for reference:
Compound	PK Bst	YjeE inh
CC12CNCC(C)(CNC1)C2O (configuration not stated)	/	i
CCN1C[C@@]2(COC(=O)c3ccccc3N3C(=O)C[C@H](C)C3=O)CC[C@H](OC)[C@@]34[C@@H]5CC6[C@@H](OC)C[C@@](O)([C@H]5[C@H]6OC)C(O)([C@@H]13)[C@@H](OC)[C@H]24	/	i

# New compounds follow.
Compound	PK Bst	YjeE inh
CCOc1ccc(-c2cc(C(=O)N3CCC4(CC3)OCCO4)c3ccccc3n2)cc1	0.71*	i
Cc1ccc(P(=S)(c2ccc(C)o2)N2CCOCC2)o1	>57	i
CCN(CC)CCCN=C(C)c1c(O)n(C2CCCCC2)c(=O)[nH]c1=O	?	i
OC1(c2ccc(F)cc2)CC2CCC(C1)N2Cc1nnnn1C1CCCCC1 (configuration not stated)	>57	i
N[C@@H](CSC1c2ccccc2-c2ccccc21)C(=O)O	/	i
CC1CC2(O)c3no[n+]([O-])c3CCC2N1O (configuration not stated)	>57	i
ClC1=C(Cl)C2(Cl)C3C(Cl)C=CC3C1(Cl)C2(Cl)Cl (configuration not stated)	/	i
C(#CCN1CCOCC1)COCC#Cc1ccccc1	>57	i
O=C(c1cc2c(s1)CCCCCC2)N1CCC2(CC1)OCCO2	>57	i
CCCNc1oc(-c2cccc3ccccc23)nc1C#N	>57	i
c1ccc(N2CC3(CCNCC3)C2)nc1	/	i
O=C(O)Cn1cc(C(=O)c2ccccc2)c2ccccc21	>57	i
COc1cc2c(cc1O)C[C@@H]1c3c(cc(O)c(OC)c3-2)CCN1C	/	i
Cc1cc(N)n(C2CCN(C)CC2)n1	>57	i
O=[As](O)(O)c1ccc(Cc2ccc([As](=O)(O)O)cc2)cc1	/	i
CCOC(=O)N(C)c1ccc(C(O)(C(=O)OCC)C(F)(F)F)cc1 (configuration not stated)	>57	i
CCn1c(C(=O)N2CCC(C(=O)N3CCC4(CC3)OCCO4)CC2)cc2sccc21	>57	i
CCOc1c(P(=S)(N(C)C)N(C)C)c(C)nn1-c1ccccc1	>57	i
N[C@H](Cc1ccc2oc3cc(=O)c4ccccc4c-3nc2c1)C(=O)O	/	i
C=Cn1ccnc1P(=S)(c1ccn(C)c1)c1nccn1C=C	>57	i
COCCOC(=O)C1=C(N)Oc2c(c(=O)oc3ccccc23)[C@@]12C(=O)Nc1ccccc12	>26	/
O=c1[nH]c2ccccc2n1CCCN1CCC(n2c(=O)[nH]c3cc(Cl)ccc32)CC1	>26	i
FC(F)(F)c1ccc(Cl)cc1	/	i
O=C(NCC(c1cccnc1)N1CCOCC1)Oc1ccccc1 (configuration not stated)	>57	i
CCCCn1c(N)c(C(=O)OCC2CCCO2)c2nc3ccccc3nc21 (configuration not stated)	>57	i

# In the list so far, these contain bromine.
Compound	PK Bst	YjeE inh
CCN(CC)c1ncnc2c1ncn2[C@@H]1O[C@@H](COP(=O)(O)OP(=O)(O)C(Br)(Br)P(=O)(O)O)[C@H](O)[C@@H]1O	/	i
O=c1c2ccccc2nc(-c2ccco2)n1-c1ccc(Br)cn1	>57	i

# Following part:
Compound	PK Bst	YjeE inh
Cc1cc(N2C(=O)CC(N3CCC(n4c(=O)[nH]c5ccccc54)CC3)C2=O)no1 (configuration not stated)	>57	i
CC(=O)OC1(c2ccc(C)cc2)CN2CCC1c1ccccc12 (configuration not stated)	>26	/
COc1ccc(N=C(C)c2c(O)n(C3CCCCC3)c(=O)[nH]c2=O)c(OC)c1	>57	i
CC(=O)c1ccccc1NC(=O)C1C2CCC(O2)C1C(=O)O (configuration not stated)	>57	i
O=C(O)c1cccc([As]=[As]c2cccc(C(=O)O)c2)c1 (configuration not stated)	/	i
Brc1ccccc1	/	i
CN(C)c1ccc(P(=S)(N(C)C)N(C)C)cc1	>57	i
Cc1ccc(OP(=O)(Oc2ccc(C)cc2)Oc2ccc(C)cc2)cc1	/	i
OC1(CN2CCOCC2)C2CC3CC(C2)CC1C3 (configuration not stated)	>57	i
C=CCBr	/	i
CC(C)(C)c1cc(C=C(C#N)C#N)cc(C(C)(C)C)c1O	/	i
Cc1ccc(CS(=O)(=O)CCC(=O)N2CCC3(CC2)OCCO3)cc1	>57	i
O=C1C2CCCN2C(c2ccc(Cl)c(Cl)c2)N1c1ccccn1 (configuration not stated)	>57	i
CCOC(=O)c1c(C)n(CCOC)c2ccc(O)cc12	>57	i
CCC/C=C(\CCC)C(NP(=O)(c1ccccc1)c1ccccc1)c1ccccc1 (configuration not stated)	/	i
Nc1nc(N)c(N=Nc2ccc([As](=O)(O)O)c(O)c2)c(N)n1	/	i
CCCN1CC[C@@H]2c3cc(O)ccc3CC[C@H]21	/	i
C[C@H]1CCCC(=O)CCCCCc2cc(O)cc(O)c2C(=O)O1	>26&>57	i
C[C@](N)(CCP(=O)(O)O)C(=O)O	/	i
COc1cc(CCN)c(OC)c(OC)c1	/	i
COc1cc(C=C(C#N)C#N)cc(O)c1O	/	i
CCOC(=O)[C@@H]1[C@@H]2c3ccccc3-c3ccccc3[C@H]2C[C@H]1O	/	i
Cc1cc(C)n2nc(C)[n+](C)c2n1	>57	i
CCN(CC)CCCN=Cc1c(O)n(CCc2ccc(F)cc2)c(=O)[nH]c1=O	>57	i
CC1CC(=O)O1 (configuration not stated)	/	i
C=CCn1c(O)c(C(C)=Nc2ccc(C(=O)OCC)cc2)c(=O)[nH]c1=O	>57	i
